# D2 potentiator – positive allosteric modulators of human D2 dopamine receptor. hit rate 0.23% among 360,000. potentiation, % (no concentration beside the values). DiscoveRx D2 beta-arrestin cells, luminescence, 90 min; 100% = 57 uM dopamine signal. AID 624464; active = potentiation of 50% or more; inconclusive = 30% to 50%; inactive = 30% or less;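 note: compound concentration not given in the record; tested on top of an EC20 dose of dopamine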
# Target sequence (P14416 whole entry, looked up): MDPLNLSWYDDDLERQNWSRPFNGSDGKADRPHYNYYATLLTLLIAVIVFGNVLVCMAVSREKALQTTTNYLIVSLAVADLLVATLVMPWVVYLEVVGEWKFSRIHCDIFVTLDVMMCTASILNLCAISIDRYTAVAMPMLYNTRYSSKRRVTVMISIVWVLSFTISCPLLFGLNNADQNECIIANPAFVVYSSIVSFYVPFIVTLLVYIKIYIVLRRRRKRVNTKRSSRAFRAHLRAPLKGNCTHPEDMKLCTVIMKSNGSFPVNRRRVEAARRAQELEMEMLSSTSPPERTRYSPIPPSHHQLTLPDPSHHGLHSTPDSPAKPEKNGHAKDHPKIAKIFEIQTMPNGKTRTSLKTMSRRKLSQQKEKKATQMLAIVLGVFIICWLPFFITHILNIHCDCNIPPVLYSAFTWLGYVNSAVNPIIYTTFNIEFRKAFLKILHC
#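 PathHunter D2 cells, attached overnight at 37 deg C, received compound in DMSO plus dopamine at EC20 (50 nM final) for 90 min at 37 deg C. Beta-arrestin recruitment was read as luminescence after 1 h with detection reagent at ambient temperature.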
# Sfp PPTase inh – blocks B. subtilis Sfp PPTase activity; Q9F4F7; Biochemical Sfp PPTase activity, qHTS; Potency, µM, inactives show max response, negative = inhibition, most hits filed as inhibitors; hit rate 3.5% among 310,000; AID 1490; active = well fitted inhibition curve with a large enough effect; inconclusive = small, poorly fitted or top-dose-only effect, or another doubt; inactive = no such curve, though single readings can be large or run the other way;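 note: the enzyme is Sfp with the accession as filed and its product quenches rhodamine fluorescence; potency is the fitted concentration of half-maximal effect; 0% = enzyme reaction without inhibitor and -100% = no enzyme wells; top concentration of the series not given in the record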
#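 Buffer: 50 mM Hepes-Na pH 7.6, 10 mM MgCl2, 0.01% Nonidet P-40, 0.01% BSA. Enzyme 15 nM, pre-exposed to compound 15 min; substrates then added and fluorescence change tracked over 30 min.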
# PINK1 modulator – modulators of PINK1 expression; Potency, µM (doses to about 76.6 µM), for inactives: top-dose activation (PINK1 increase), usual class: activators; hit rate 0.2% among 410,000; PINK1 immunofluorescence, high-content cytometry, 24 h; AID 624263; active = well fitted activation curve with a large enough effect; inconclusive = small, poorly fitted or top-dose-only effect; inactive = flat fitted curve, though single readings scatter; cell line not stated here;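 note: potency is the fitted concentration of half-maximal effect; % of control where 0% means no effect; nearly all actives have a fitted effect of over 65% in size; a mitochondrial uncoupler was the plate control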
#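 Measures PINK1 amount and localization on or inside mitochondria by immunofluorescence. Stable cells get compounds at 5 concentrations for 24 hours before fixation and staining; CCCP controls included.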
# Six1-Eya2 blk – inhibitors of human Six1/Eya2 interaction; Q15475+O00167; AlphaScreen GST-Six1/His-Eya2 binding, biochemical; hits give low values; control for the full effect not named in the record; activity change, % (no concentration beside the values); hit rate 0.56% among 360,000; AID 651725; in the data active = activity change below about -65%; inconclusive = about -30% to -65%; inactive = above about -30%; note: % is set by controls: 0 for no effect and ±100 for the full control effect; compound concentration not given in the record
#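 Six1/Eya2 binding was read as AlphaScreen signal after compounds were pinned into GST-Six1 plus His-tagged Eya2 (5X stock 250/500 nM) in pH 8.0 Tris/NaCl/TCEP buffer, beads added, then incubated 1 h, 37 C, dark.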
# CtBP-E1A blk – inhibitors of CtBP/E1A interaction | AlphaScreen GST-E1A/His-CtBP binding, 1536-well; hits give low values; control for the full effect not named in the record | activity change, % (test concentration not listed) | hit rate 0.49% among 340,000; in the data active means activity change below about -65%; inconclusive means about -30% to -65%; inactive means above about -30%; note: % is set by controls: 0 for no effect and ±100 for the full control effect; compound concentration not given in the record
#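 Homogeneous bead-based format: GST-tagged E1A captured on glutathione donor beads, His-tagged CtBP on nickel acceptor beads; compounds precede bead addition by 2 h at 37 °C.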
# TRPV1 PAM – potentiators of human vanilloid receptor 1 (TRPV1). Q8NER1. hit rate 0.02% among 320,000. TRPV1-expressing cells, Fluo-8 calcium influx, capsaicin EC20 potentiation; host cell line not named in the record; control for the full effect not named in the record. potentiation, % at 8.33 µM. AID 540277; active means potentiation above 80%; inconclusive means 30% to 80%; inactive means below 30%; note: 0% is about no effect
#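 TRPV1-expressing cells were cultured overnight at 35.5C and loaded with Fluo-8 calcium dye for 40 to 90 min at room temperature. After a 10 s baseline, compound was added and calcium influx was read kinetically for 3 min (ex 480/em 520 nm).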
# D2 ag – activates the human D2 dopamine receptor | hit rate 0.084% among 360,000 | P14416 | DiscoveRx PathHunter D2 beta-arrestin, luminescence, 90 min; 100% = 57 uM dopamine signal | AID 624465 | activation, % (no concentration beside the values); in the data active = activation above about 40%; inconclusive = about 15% to 40%; inactive = below about 15%; note: compound concentration not given in the record; the text of the record calls up to 30% inactive
#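 Agonist mode: compounds alone added to overnight-plated D2 PathHunter cells for 90 min at 37 C, with 57 uM final dopamine (EC100) defining full response. Beta-arrestin recruitment detected by chemiluminescent reagent, read after 1 h at ambient temperature.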
# Starred values were filed as active, the others as inactive; ? = inconclusive; . = not tested or not shown; [ ] = another dose, or the depositor's remark. The order is random; about 3.7% have a hit in one of these screens.
# Field names – A = D2 potentiator; B = Sfp PPTase inh; C = PINK1 modulator; D = Six1-Eya2 blk; E = CtBP-E1A blk; F = TRPV1 PAM; G = D2 ag
[1] O=C(O)/C(=C\c1ccccc1OC(F)F)c1ccc(-c2ccccc2)cc1
  A = -1; B = 9%; C = 1.6%; D = 0; E = 24; F = 0; G = 0.3
[2] OCC1(CCOc2ccccc2)CCN(Cc2cn[nH]c2-c2ccccc2)CC1
  A = -5; B = 22%; C = 1.4%; D = -4; E = -5; F = 12; G = -3.4
[3] O=C(c1ccc(COCC(F)(F)F)cc1)N1CCN(c2ccccn2)CC1
  A = -9; B = 16%; C = 1.3%; D = -2; E = 13; F = 3; G = -1.8
[4] CC(C)CCN1CCN(Cc2ccc(Oc3ncccn3)cc2)CC1CCO (stereo not given)
  A = -10; B = 3%; C = 0.8%; D = -7; E = 3; F = -16; G = -5.0
[5] Cc1ccc(CNC(=O)COC(=O)CSc2ccc(Br)cc2C)cc1
  A = -8; B = -3%; C = -0.1%; D = 27; E = 14; F = -24; G = -1.5
[6] CN1CCc2[nH]c3ccc(C(=O)NN)cc3c2C1
  A = -9; B = -2%; C = 6.0%[38.3 µM]; D = -1; E = 1; F = 1; G = -2.2
[7] O=C(O)c1cn(-c2ccc(N3CCCC3)c(F)c2)c2c(F)c(F)c(F)cc2c1=O
  A = -1; B = 1%; C = -1.9%; D = 0; E = 1; F = 0; G = -1.9
[8] COc1ccc(CNc2nc(NCc3ccc(OC)cc3)n(C(=O)c3ccncc3)n2)cc1
  A = -10; B = 6%; C = 0.9%; D = -13; E = .; F = -5; G = -1.6
[9] Cc1ccc(CN2CCC(C(=O)Nc3cccc(-c4cccc(F)c4)c3)CC2)o1
  A = -11; B = -3%; C = 8.2%; D = 0; E = .; F = -5; G = -2.4
[10] O=C(Cn1ncc2c([nH]c3ccccc32)c1=O)Nc1ccc(F)cc1F
  A = 0; B = -21%; C = 3.0%; D = 31; E = 3; F = 1; G = -6.8
[11] COc1ccccc1NC(=O)Nc1ccnn1C1CCN(C(=O)c2cccnc2)CC1
  A = -6; B = 9%; C = 3.5%; D = 3; E = .; F = -6; G = -0.8
[12] Cc1ccc(NC(=O)C2SC(=Nc3ccccc3)C(C(=O)Nc3ccc(Cl)cc3)=C2N)cc1 (stereo not given)
  A = 2; B = 24%; C = 1.7%; D = -2; E = 0; F = 0; G = 2.6
[13] N#Cc1nc(-c2ccco2)oc1NCc1cccnc1
  A = -5; B = -2%; C = .; D = -4; E = 8; F = 2; G = -2.5
[14] COc1ccc(CCNS(=O)(=O)c2ccc([N+](=O)[O-])cc2)cc1OC
  A = -3; B = 13%; C = -1.0%; D = 0; E = 5; F = -1; G = -3.9
[15] CCn1c(=O)cc(SCC(=O)N2CCCCC2)c2ccccc21
  A = -9; B = 8%; C = 5.9%[38.3 µM]; D = -7; E = -3; F = 0; G = -2.4
[16] Cc1cc(C(=O)Nn2c(C)nc3ccccc3c2=O)ccc1[N+](=O)[O-]
  A = -6; B = 1%; C = 2.7%; D = -2; E = -6; F = -9; G = 0.7
[17] Cn1ccnc1SCC(=O)NC12CC3CC(CC(C3)C1)C2
  A = -8; B = 12%; C = .; D = 0; E = -3; F = -1; G = -1.7
[18] CCOC(=O)c1csc(NC(=O)c2cc3ccccc3o2)n1
  A = -6; B = 13%; C = 6.2%; D = 7; E = 4; F = 3; G = 1.1
[19] Cc1cc(=O)oc(C)c1C(=O)NCc1ccccn1
  A = -5; B = -29%; C = 5.2%[38.3 µM]; D = -81*; E = ?; F = -4; G = -2.4
[20] CC(C)C(=O)N1CCCC1(C)C(=O)Nc1ccc(-n2cncn2)cc1 (stereo not given)
  A = 1; B = .; C = -0.2%; D = 29; E = 1; F = .; G = -0.5
[21] Cc1nnc(SCC2=C(C(=O)O)N3C(=O)C(NC(=O)c4cc(F)c(F)cc4Cl)C3SC2)s1 (stereo not given)
  A = -12; B = 50µM*; C = 0.1%; D = -5; E = 4; F = 4; G = -5.2
[22] Cc1cc(C)c2cc(C#N)c(N3CCCN(S(=O)(=O)c4ccccc4)CC3)nc2c1
  A = -8; B = .; C = 15%[38.3 µM]; D = 4; E = 14; F = .; G = -1.2
[23] COc1ccc(-c2coc3cc(O)ccc3c2=O)cc1O
  A = 7; B = 10%; C = -0.2%; D = -1; E = -4; F = 7; G = 13
[24] O=C(NCCc1ccc(Cl)cc1)c1cc(-c2ccncc2)nc2ccccc12
  A = 3; B = 1%; C = 3.7%; D = -2; E = 1; F = -5; G = 8.7
[25] O=C1CC(=C2c3ccccc3-c3ccccc32)C(=O)N1CCCCN1CCN(c2ccccc2)CC1
  A = -13; B = -1%; C = -26%[38.3 µM]; D = ?; E = ?; F = -7; G = 13

# Rewritten screen by screen: part of the list above.
10. O=C(Cn1ncc2c([nH]c3ccccc32)c1=O)Nc1ccc(F)cc1F
5. Cc1ccc(CNC(=O)COC(=O)CSc2ccc(Br)cc2C)cc1

Compound	10	5
D2 potentiator	0	-8
Sfp PPTase inh	-21%	-3%
PINK1 modulator	3.0%	-0.1%
Six1-Eya2 blk	31	27
CtBP-E1A blk	3	14
TRPV1 PAM	1	-24
D2 ag	-6.8	-1.5

# (cont.)
# Field names – A = D2 potentiator; B = Sfp PPTase inh; C = PINK1 modulator; D = Six1-Eya2 blk; E = CtBP-E1A blk; F = TRPV1 PAM; G = D2 ag
[26] COc1cccc(CNC(=O)CCC2CCCN(C(=O)c3ccc(OC)c(F)c3)C2)c1 (stereo not given)
  A = 1; B = 7%; C = -1.1%; D = 4; E = .; F = -28; G = -4.6
[27] Cc1nc(S(=O)(=O)NC2CCCCC2)c(C#N)c(C)c1Cl
  A = 0; B = 7%; C = -0.9%; D = 0; E = 3; F = .; G = -1.7
[28] O=[N+]([O-])c1ccc(Cl)cc1Sc1nc2ccccc2o1
  A = 4; B = -5%; C = 5.4%[38.3 µM]; D = -16; E = -12; F = -6; G = -1.0
[29] CCOC(=O)COc1ccccc1/C=N/O
  A = -12; B = 14%; C = 0.3%; D = -2; E = -4; F = 6; G = -3.0
[30] CC(C)(C)c1nn2cnnc2n(/N=C/c2ccccc2)c1=O
  A = 1; B = 12%; C = 1.7%; D = 7; E = 10; F = 24; G = -0.7
[31] Cc1cc(C)n(-c2ccc(C(=O)OCC(=O)Nc3ccc(S(=O)(=O)N4CCCCC4)cc3)cc2)n1
  A = -4; B = -8%; C = 0.5%; D = -3; E = -7; F = 13; G = -1.3

# Given tab-delimited: part of the list above
cpd	structure	D2 potentiator	Sfp PPTase inh	PINK1 modulator	Six1-Eya2 blk	CtBP-E1A blk	TRPV1 PAM	D2 ag
4	CC(C)CCN1CCN(Cc2ccc(Oc3ncccn3)cc2)CC1CCO (stereo not given)	-10	3%	0.8%	-7	3	-16	-5.0
5	Cc1ccc(CNC(=O)COC(=O)CSc2ccc(Br)cc2C)cc1	-8	-3%	-0.1%	27	14	-24	-1.5
6	CN1CCc2[nH]c3ccc(C(=O)NN)cc3c2C1	-9	-2%	6.0%[38.3 µM]	-1	1	1	-2.2
7	O=C(O)c1cn(-c2ccc(N3CCCC3)c(F)c2)c2c(F)c(F)c(F)cc2c1=O	-1	1%	-1.9%	0	1	0	-1.9
8	COc1ccc(CNc2nc(NCc3ccc(OC)cc3)n(C(=O)c3ccncc3)n2)cc1	-10	6%	0.9%	-13	.	-5	-1.6
9	Cc1ccc(CN2CCC(C(=O)Nc3cccc(-c4cccc(F)c4)c3)CC2)o1	-11	-3%	8.2%	0	.	-5	-2.4
10	O=C(Cn1ncc2c([nH]c3ccccc32)c1=O)Nc1ccc(F)cc1F	0	-21%	3.0%	31	3	1	-6.8
11	COc1ccccc1NC(=O)Nc1ccnn1C1CCN(C(=O)c2cccnc2)CC1	-6	9%	3.5%	3	.	-6	-0.8
12	Cc1ccc(NC(=O)C2SC(=Nc3ccccc3)C(C(=O)Nc3ccc(Cl)cc3)=C2N)cc1 (stereo not given)	2	24%	1.7%	-2	0	0	2.6
13	N#Cc1nc(-c2ccco2)oc1NCc1cccnc1	-5	-2%	.	-4	8	2	-2.5
14	COc1ccc(CCNS(=O)(=O)c2ccc([N+](=O)[O-])cc2)cc1OC	-3	13%	-1.0%	0	5	-1	-3.9
15	CCn1c(=O)cc(SCC(=O)N2CCCCC2)c2ccccc21	-9	8%	5.9%[38.3 µM]	-7	-3	0	-2.4

# Down the list, as entered above.
# Six1-Eya2 blk, entries 26 to 31 → 4, 0, -16, -2, 7, -3
# CtBP-E1A blk, entries 26 to 31 → ., 3, -12, -4, 10, -7
